# High-throughput results from PubChem BioAssay.
# Cruzain inh noDet: cruzain (T. cruzi) inhibition without detergent | hit rate 2.3% among 200,000 | P25779 | Potency, µM, for inactives: max response, negative = inhibition, most hits filed as inhibitors | purified cruzain, Z-FR-AMC fluorescence, no detergent; active = well fitted curve in the direction sought with a large enough effect; inconclusive = small, poorly fitted or top-dose-only effect, or another doubt; inactive = no such curve, though single readings can be large; an effect the other way counts as inactive or inconclusive;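 also: plate controls were enzyme without inhibitor for no effect and buffer without enzyme for full effect; nearly all actives have a fitted effect of over 40% in size; top concentration of the series not given in the record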
# Target sequence (P25779 123-467 limits assumed): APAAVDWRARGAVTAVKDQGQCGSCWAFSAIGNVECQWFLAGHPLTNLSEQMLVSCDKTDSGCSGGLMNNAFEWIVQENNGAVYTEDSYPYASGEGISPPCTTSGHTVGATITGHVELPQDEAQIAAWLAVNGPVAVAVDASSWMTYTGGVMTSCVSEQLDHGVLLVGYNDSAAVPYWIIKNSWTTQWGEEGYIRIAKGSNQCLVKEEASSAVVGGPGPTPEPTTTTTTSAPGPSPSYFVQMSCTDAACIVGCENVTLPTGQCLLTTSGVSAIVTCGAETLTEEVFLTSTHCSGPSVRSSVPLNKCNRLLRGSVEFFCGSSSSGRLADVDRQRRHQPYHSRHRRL
#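 Purified cruzain at 1.5 nM, pre-incubated 15 min with compound at room temperature in 100 mM sodium acetate pH 5.5, 5 mM DTT, 0.00005% Triton X-100. Reaction started with 2 uM Z-FR-AMC; AMC fluorescence increase over 60 s gives rate.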
# SARS PLP yeast: blocks SARS-CoV papain-like protease in a yeast assay | S. cerevisiae expressing SARS-CoV PLpro, growth rescue; control for the full effect not named in the record | Potency, µM (top dose mostly 32.9 µM), without a hit: at the highest dose activity, positive = growth rescue | hit rate 0.19% among 330,000; also: 0% is about no effect; nearly all actives have a fitted effect of over 55% in size; growth read by luminescence after 48 h
# StopGo reporter: FMDV 2A StopGo reporter, luciferase signal; hit rate 1.2% among 410,000; Potency, µM (top dose mostly 57.9 µM), inactives show at the highest dose signal change, negative = less light; AID 1159524; human cells with a luciferase reporter of 2A StopGo recoding; control for the full effect not named in the record; active = well fitted falling curve with a large enough effect; inconclusive = small, poorly fitted or top-dose-only effect; inactive = no such curve, though single readings can be large or run the other way; tested in HEK293T cells; also: % is scaled to controls: 0 for no effect and ±100 for the full control effect; nearly all actives have a fitted effect of over 45% in size; luciferase light after 4 h
# LASV entry inh: Lassa virus entry inhibition | Lassa virus pseudotype entry inhibition, cell reporter; control for the full effect not named in the record | Potency, µM (series often up to 37.9 µM), for inactives: at the highest dose activity change, negative = inhibition, usual class: inhibitors | hit rate 1.2% among 300,000 | AID 540256; active means well fitted inhibition curve with a large enough effect; inconclusive means small, poorly fitted or top-dose-only effect, or effect the other way; inactive means flat fitted curve, though single readings scatter; tested in HEK293 cells; also: % is scaled to controls: 0 for no effect and ±100 for the full control effect; nearly all actives have a fitted effect of over 50% in size; luciferase read-out
# MARV entry inh: blocks Marburg virus binding to or entry into cells; Marburg virus pseudotyped entry inhibition, cell reporter; control for the full effect not named in the record; about a third of the inactives were read at about 46 µM; Potency, µM (top dose mostly 37.8 µM), without a hit: at the highest dose activity change, negative = inhibition, most hits filed as inhibitors; hit rate 1.8% among 300,000; AID 540276; active = well fitted inhibition curve with a large enough effect; inconclusive = small, poorly fitted or top-dose-only effect, or effect the other way; inactive = flat fitted curve, though single readings scatter; tested in HEK293 cells; about a fifth of its hits are not listed in these tables; also: % is scaled to controls: 0 for no effect and ±100 for the full control effect; luciferase read-out
# NS1 inh: inhibitors of influenza NS1 protein function; S. cerevisiae slowed by influenza A NS1, growth recovery by OD600; Potency, µM (top dose mostly 46.1 µM), without a hit: at the highest dose activity, positive = more growth; hit rate 0.4% among 270,000; AID 2326; also: actives are rising curves; nearly all actives have a fitted effect of over 50% in size
#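 OD600 was taken as the measure of yeast growth restored by compound in an NS1-expressing S. cerevisiae strain. Cells had been washed out of glucose medium and diluted 1:100 into galactose -URA medium, pH 6.0.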
# Cruzain Triton: inhibitors of Trypanosoma cruzi cruzain with detergent. P25779. purified cruzain, Z-FR-AMC fluorescence, 0.01% Triton. Potency, µM, without a hit: max response, negative = inhibition, usual class: inhibitors. hit rate 0.43% among 200,000. AID 1478; active = well fitted curve in the direction sought with a large enough effect; inconclusive = small, poorly fitted or top-dose-only effect, or another doubt; inactive = no such curve, though single readings can be large; an effect the other way counts as inactive or inconclusive;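 also: plate controls were neutral wells for no effect and buffer without enzyme for full effect; nearly all actives have a fitted effect of over 40% in size; top concentration of the series not given in the record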
#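 Z-FR-AMC hydrolysis (2 uM substrate) by cruzain (1.5 nM) monitored kinetically at ex 360/em 450 nm after 15 min room-temperature compound exposure; 0.01% Triton X-100, pH 5.5, 5 mM DTT.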
# RE007 growth inh: less growth of the S. pombe RE007 Vpr strain. hit rate 0.21% among 360,000. Potency, µM (highest dose often 92.2 µM), for the others: at the top dose activity change, negative = less growth. S. pombe RE007 Vpr strain, BacTiter-Glo ATP luminescence, 24 h; control for the full effect not named in the record; active = well fitted falling curve with a large enough effect; inconclusive = small, poorly fitted or top-dose-only effect; inactive = no such curve, though single readings can be large or run the other way;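 also: % is scaled to controls: 0 for no effect and ±100 for the full control effect; nearly all actives have a fitted effect of over 50% in size; the assay follows cell death caused by Vpr and the record does not say whether a fall means rescue or toxicity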
#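 Fission yeast RE007 carrying one integrated HIV-1 vpr copy, seeded at OD 0.01 in PMG+AL medium with 23 nL pinned compound. Grown 24 h at 30 degrees; viability read by BacTiter-Glo luminescence after 5 min.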
# Numbers without * were called inactive; ? = inconclusive; . = no result given; [ ] = remark or other dose. Unless noted, calls follow the shape of the dose curve; as a rule, active means well fitted rising curve with a large enough effect; inconclusive means small, poorly fitted or top-dose-only effect; inactive means no such curve, though single readings can be large or run the other way. Potency is read from the fitted curve at half-maximal effect.
SMILES,Cruzain inh noDet,SARS PLP yeast,StopGo reporter,LASV entry inh,MARV entry inh,NS1 inh,Cruzain Triton,RE007 growth inh
CCOc1cccc(/C=N/NS(=O)(=O)c2ccc(C)c([N+](=O)[O-])c2)c1O,.,-1.0%,42.8%[activator],-29.2%,-13.6%[46.1 µM],.,.,25.2%
CCC1CCc2c(sc3nc(SCC(=O)NCc4ccco4)n(-c4ccccc4)c(=O)c23)C1 (configuration not stated),?,-5.7%,-6.1%,-22.0%,?,9.8%,-2.0%,2.3%
CCOC(=O)c1ccc(NC(=O)COc2cc3oc(=O)c(CC(C)O)c(C)c3cc2Cl)cc1 (configuration not stated),.,0.4%,-13.7%,.,.,6.8%,.,8.6%
Cn1c(=O)n(C)c2cc(N3CCCCC3)c(NC(=O)c3ccc(Cl)cc3)cc21,-11.1%,.,-7.6%,-17.2%[46.1 µM],1.3%[46.1 µM],.,-0.2%,.
O=C(CN1CCN(C(=O)c2ccco2)CC1)Nc1c2c(nc3c1CCC3)CCCC2,-7.0%,2.4%,0.0%,-6.3%,-5.7%[46.1 µM],1.3%,5.6%,12.5%
CN(CCc1ccccn1)C(=O)c1nn2c(C(F)(F)F)cc(-c3ccco3)nc2c1Cl,-8.9%,7.2%,?,18.5%,?,0.2%,-3.7%,15.5%
COc1ccc(CCNC(=O)CCCn2nc(C)c([N+](=O)[O-])c2C)cc1OC,.,2.8%,-9.0%,4.4%[46.1 µM],1.6%[46.1 µM],.,.,-8.7%
Cc1ccc(C)c(OCc2nc3ccc(S(=O)(=O)Nc4c(C)n(C)n(-c5ccccc5)c4=O)cc3[nH]2)c1,.,0.4%,-5.7%,-17.7%[46.1 µM],0.0%[46.1 µM],.,.,6.6%
CCN(CC)CCNC(=O)CCCCCn1c(=O)[nH]c2cc(C(=O)OC)ccc2c1=O,0.6%,-2.2%,5.6%,?,?,11.1%,1.6%,8.0%
O=[N+]([O-])c1ccc(-c2cc(-c3ccc(Cl)cc3)n[nH]2)cc1,?,2.8%,32.6%[activator],1.1%,?,-11.9%,2.0%,-15.8%
COc1ccc(NC(=O)CCCn2c(=O)[nH]c3ccccc3c2=O)cc1,0.6%,4.7%,2.4%,?,10.5%,-1.5%,1.7%,-0.9%
COCCCN=C1NN=C(c2cc(C)n(-c3ccccc3F)c2C)CS1,.,-3.9%,-7.0%,14.6µM*,2.06µM*,.,.,8.7%
COC(=O)Oc1ccc(/C=N/NC(=O)CN(c2ccccc2Br)S(C)(=O)=O)cc1OC,-5.2%,4.9%,-15.4%,.,1.5%,13.7%,6.1%,-14.0%
CC(OC(=O)C1CC1)C(=O)Nc1cccc(S(=O)(=O)N2CCOCC2)c1 (configuration not stated),.,-3.6%,8.1%,-4.4%,1.7%,.,.,0.4%
O=C(CCNS(=O)(=O)c1ccc(Br)s1)N1CCN(c2ccccc2)CC1,-3.9%,-9.4%,3.8%,?,?,-68.1%,-1.8%,25.2%
C=CCN1CC(c2nc3ccccc3n2Cc2cccc3ccccc23)CC1=O (configuration not stated),?,-2.3%,-25.9%,-17.0%,?,-70.4%,-4.7%,14.8%
Cc1cc(CN2CCCC(C(=O)Nc3cccc(-n4cccn4)c3)C2)cc(C)c1O (configuration not stated),.,0.2%,?,.,.,-9.0%,.,5.2%
CCOC(=O)CCCCCN1C(=O)c2cccc3cccc(c23)C1=O,.,2.1%,-2.7%,.,.,10.0%,.,-10.4%
CCCCN1C(=O)C2C(C(=O)Nc3cccc(OC)c3)C3C=CC2(O3)C1C(=O)NC1CCCCC1C (configuration not stated),6.0%,-16.1%,1.1%,-15.7%,-17.9%,-9.3%,-1.4%,1.8%
Fc1ccc(Nc2nc(SCc3cccc(F)c3)nc3ccccc23)cc1,6.8%,.,-3.2%,-24.4%[46.1 µM],.,.,-1.7%,.
C=CCn1c(SCC(=O)Nc2c(C)n(C)n(-c3ccccc3)c2=O)nc2sc(C)c(C)c2c1=O,1.9%,-7.4%,-18.1%,-10.9%,5.6%,7.5%,-0.3%,4.4%
Cc1ccc(CN2CC(C(=O)N3CCN(c4ccccc4O)CC3)CC2=O)cc1 (configuration not stated),.,-3.1%,?,11.2µM*,7.0%,.,.,-4.6%
CCOCCCNCc1ccc(OC)c(OC)c1,-1.4%,1.9%,-8.7%,-11.8%,-0.2%[46.1 µM],4.0%,7.8%,6.8%
Cc1ccc(/C=C/C(=O)O)cc1S(=O)(=O)N1CCCCC1,.,0.8%,-11.5%,.,.,-3.0%,.,-8.2%
O=C(c1ccc(=O)[nH]c1)N1CCN(S(=O)(=O)c2ccc(Cl)cc2)CC1,.,0.8%,22.8%,.,5.5%[46.1 µM],-7.6%,.,5.3%

# Remaining list, next part.
SMILES,Cruzain inh noDet,SARS PLP yeast,StopGo reporter,LASV entry inh,MARV entry inh,NS1 inh,Cruzain Triton,RE007 growth inh
COc1ccc(N(CC(O)Cn2cnc3ccccc32)S(=O)(=O)c2ccc(C)cc2)cc1 (configuration not stated),12.3%,-5.9%,-7.3%,?,-1.5%,-4.9%,-7.3%,-3.2%
Cc1cccc(C(=O)Nc2nnc(-c3ccc(C(C)(C)C)cc3)s2)c1,?,-2.0%,38.9%[activator],?,-29.1%,-6.5%,-0.1%,0.5%
CCOC(=O)Cc1c(C)nc2cc(C)nn2c1C,8.0%,0.0%,19.5%,26.0%,?,0.9%,-0.4%,21.6%
Cc1ccc(-c2nc(C)c(CCNC(=O)C(=O)Nc3ccc(C)c(Cl)c3)s2)cc1,3.8%,.,-18.5%,?,.,.,1.0%,.
CC1CCN(C(=O)Cn2cc(SCC(=O)Nc3ccccc3C(F)(F)F)c3ccccc32)CC1,-1.5%,.,?,-16.2%[46.1 µM],.,.,-5.2%,.
Cc1cc(C)cc(NC(=O)CCn2cnc3ccccc3c2=O)c1,-10.5%,.,-24.6%,-0.9%[46.1 µM],.,.,-1.2%,.
C=CCOC(=O)C1C(=O)CC(C)(O)C(C(=O)OCC=C)C1c1ccc(OC)cc1 (configuration not stated),11.9%,1.1%,-24.4%,2.5%,?,-5.7%,-0.8%,-2.4%
Cc1cc(S(=O)(=O)NCc2cccnc2)ccc1-n1cnnn1,-7.4%,0.0%,.,-3.0%,3.7%,-1.8%,2.1%,0.0%
Cc1occc1-c1nnc(SCC(=O)N2CCCCC2)n1C,.,-0.9%,0.0%,-10.6%,-7.0%[46.1 µM],.,.,7.1%
Cc1cc(N2CCN(C(=O)c3ccco3)CC2)nc(-c2ccccc2)n1,-9.6%,-20.4%,-3.3%,11.2µM*,?,-14.3%,6.5%,-17.8%
O=C1Nc2c(c(=O)[nH]c(=O)n2-c2ccccc2)C1(Nc1ncccn1)C(F)(F)F (configuration not stated),-9.0%,5.6%,-6.8%,19.5%,14.3%[46.1 µM],-4.7%,1.4%,-2.3%
Cc1cc(=O)oc2c(C)c(OC(C)C(=O)NCc3ccccn3)ccc12 (configuration not stated),.,-4.3%,20.6%,5.3%[46.1 µM],?,1.2%,.,-9.0%
COc1cccc(-c2ccc(C#N)c(SCC(=O)NCCc3cccc(Cl)c3)n2)c1,31.6µM*,2.0%,.,?,?,-2.6%,-4.0%,-1.3%
COc1ccc(C(=O)NC(=S)N2CCCc3ccccc32)cc1OC,.,-0.7%,-3.8%,-13.5%,-3.2%[46.1 µM],11.2%,.,4.7%
O=C(NCc1cccc(Br)c1)c1ccc(NC(=O)N2CCCCc3ccccc32)cc1,0.7%,.,0.0%,6.2%[46.1 µM],.,.,2.8%,.
S=c1[nH]nc(-c2ccc(Br)cc2)n1-c1ccc2c(c1)OCCO2,.,-0.9%,-11.5%,?,-11.2%,14.0%,.,19.8%
Cc1onc(-c2ccccc2Cl)c1C(=O)NCc1cccnc1,-8.9%,?,-0.5%,7.8%,0.8%,0.0%,-4.2%,14.9%
CCCCS(=O)(=O)Nc1ccc(C(=O)NCC2CCCO2)cc1 (configuration not stated),4.8%,2.5%,-23.5%,7.1%,-5.0%,5.9%,2.4%,-11.8%
COCCn1c(SCC(=O)Nc2ccc(OC)cc2OC)nc2ccccc2c1=O,.,8.2%,-8.5%,.,.,9.7%,.,7.3%
COc1ccccc1C1C(C(N)=O)=C(C)Nc2nc(-c3ccc(Cl)cc3)nn21 (configuration not stated),-6.7%,9.6%,-10.1%,.,.,2.9%,0.8%,0.6%
O=C(c1ccncc1)N1C2C=CC(C2)C1(C(F)(F)F)C(F)(F)F (configuration not stated),-7.6%,0.8%,.,.,.,9.2%,1.1%,.
O=C(O)c1ccc(CP(=O)(c2ccccc2)c2ccccc2)cc1,.,-0.2%,3.2%,.,.,6.5%,.,8.6%
COc1ccc(-c2nc(C)c(CCNC(=O)c3ccccc3Br)s2)cc1OC,?,.,16.2%,-3.0%[46.1 µM],.,.,-13.0%,.
Cc1c(C2=CCN(S(=O)(=O)c3ccc(Cl)cc3)CC2)c2ccccc2n1C,31.6µM*,-15.9%,-6.3%,-4.6%,18.7%,11.6%,-3.5%,-1.4%
C[N+]1(CCOc2ccc([N+](=O)[O-])cc2)CCOCC1,-2.2%,-2.2%,0.0%,15.9%,7.7%,7.0%,-0.9%,-0.7%
COc1ccc(-n2c(C)nc3cc(C(=O)N4CCC5(CC4)OCCO5)ccc32)cc1,2.6%,0.4%,10.7%,?,-21.5%,-11.1%,4.2%,-3.2%
O=S(=O)(Nc1ncccn1)c1ccc(NC(=S)N2CCN(c3cccc(C(F)(F)F)c3)CC2)cc1,.,.,-23.7%,1.3%,1.6%,.,.,1.6%
C1CCN(c2nc3nonc3nc2N2CCCCC2)CC1,-4.5%,12.1%,-16.4%,10.1%,-0.6%,0.6%,-2.3%,5.2%

# Of the compounds above, these have a COOH group:
SMILES,Cruzain inh noDet,SARS PLP yeast,StopGo reporter,LASV entry inh,MARV entry inh,NS1 inh,Cruzain Triton,RE007 growth inh
Cc1ccc(/C=C/C(=O)O)cc1S(=O)(=O)N1CCCCC1,.,0.8%,-11.5%,.,.,-3.0%,.,-8.2%
O=C(O)c1ccc(CP(=O)(c2ccccc2)c2ccccc2)cc1,.,-0.2%,3.2%,.,.,6.5%,.,8.6%
